Assay outcomes from PubChem BioAssay.
MenB inh = blocks the Mycobacterium tuberculosis MenB enzyme; P9WNP5; MenB enzyme assay, absorbance read-out; some hits fall short of the stated cut; inhibition, %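 (about 12 µg/mL by stock and volumes)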; 100,000 compounds, 0.43% hits; AID 540299;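 active = mean of two replicates above 30%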;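 also: 0% = no compound and 100% = wells with inactive enzyme; the first replicate is given; strong numbers were not always called active; inactives centre near -10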
Target sequence (P9WNP5 whole entry, looked up): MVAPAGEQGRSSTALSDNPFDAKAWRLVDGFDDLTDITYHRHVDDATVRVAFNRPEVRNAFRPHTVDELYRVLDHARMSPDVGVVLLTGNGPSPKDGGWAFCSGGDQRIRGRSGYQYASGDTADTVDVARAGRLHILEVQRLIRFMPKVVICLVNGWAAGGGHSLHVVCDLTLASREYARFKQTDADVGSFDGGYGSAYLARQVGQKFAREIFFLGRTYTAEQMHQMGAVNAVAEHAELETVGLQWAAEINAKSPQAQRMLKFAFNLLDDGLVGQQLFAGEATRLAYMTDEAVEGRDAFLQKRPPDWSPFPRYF
Polio RdRp inh = inhibitors of poliovirus RNA polymerase binding and polymerization; poliovirus polymerase elongation, fluorescence polarization; stronger effect = lower value; % elongation, % (compound at 16.7 µg/mL); 150,000 compounds, 0.66% hits; in the data active = % elongation below about 90%; also: some results filed as inactive read as strong as hits
MbtI inh = inhibitors of Mycobacterium tuberculosis siderophore enzyme MbtI; P9WFX0; inhibition, %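 (about 17 µg/mL by stock and volumes)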; 100,000 compounds, 0.89% hits; purified MbtI enzyme, fluorescence intensity read-out;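 active = above 50% in both replicates, above 80% if mildly self-fluorescent; inactive = the rest, strongly fluorescent compounds included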;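 also: 0% = mean of negative and 100% = mean of positive controls; one replicate is shown; some compounds called inactive have numbers as strong as hits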
Target sequence (P9WFX0 whole entry, looked up): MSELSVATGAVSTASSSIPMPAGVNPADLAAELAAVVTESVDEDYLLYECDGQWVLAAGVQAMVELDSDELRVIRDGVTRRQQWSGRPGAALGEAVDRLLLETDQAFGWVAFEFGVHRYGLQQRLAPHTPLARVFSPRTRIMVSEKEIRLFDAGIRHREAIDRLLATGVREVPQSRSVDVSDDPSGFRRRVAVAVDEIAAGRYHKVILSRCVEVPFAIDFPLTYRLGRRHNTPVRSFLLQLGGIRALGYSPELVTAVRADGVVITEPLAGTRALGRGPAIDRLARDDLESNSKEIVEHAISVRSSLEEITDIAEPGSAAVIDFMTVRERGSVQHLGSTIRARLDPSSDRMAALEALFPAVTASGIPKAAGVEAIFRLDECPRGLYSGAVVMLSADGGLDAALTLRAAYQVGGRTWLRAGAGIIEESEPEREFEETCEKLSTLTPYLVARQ
Polio RdRp inh intensity = also measured in Polio RdRp inh; calls as there; % elongation; measured here: total intensity read-out; formula for this scale not given here;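 total fluorescence in place of polarization; lower means less elongation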
The depositor's hits bear a star; i = inactive; nt = not tested or not shown; & = joins results of further samples.

molecule	MenB inh	Polio RdRp inh	Polio RdRp inh intensity	MbtI inh
CC(C)C(=O)n1nc(-c2cccnc2)nc1NCc1ccccc1	-21	102	104	27
COc1ccc(OC(=O)C2CCN(S(=O)(=O)c3cccc4nsnc34)CC2)cc1	-8	107	104	-9
Cc1cc(C)n(NC2=CC(=O)CC(C)(C)C2)c(=O)c1C#N	1	103	102	nt
COc1ccc(-c2nn(-c3ccccc3)cc2C(=O)Oc2ccccc2)cc1OC	-34	102	106	i
COc1cc(OC)c(C=Nc2ccccc2)cc1Br	-6	105	107	nt
CCOC(=O)C(C(=O)Nc1cccc(C)n1)C1CCCCC1 (stereo not given)	-18	104	109	3
O=C(c1ccncc1)N(Cc1ccc2c(c1)OCO2)C1CCCC1	4	124	122	-3
O=C(O)c1cnc(N2CCCCC2)nc1	-2	99	102	51
Cc1ccc2c(c1)-c1nc3nc(N)[nH]c(=O)c3cc1C(O)O2 (stereo not given)	8	105	118	-5
CSc1nc2c(Cl)cccc2c2c1c(=O)[nH]n2C	-2	104	105	-6
CCc1ccc(C(=O)c2cnc3cc4c(cc3c2N2CCCC2)OCCO4)cc1	3	103	100	3
Cc1nc(SCC(=O)N(Cc2ccco2)CC(F)(F)F)c2ccccc2n1	-10	105	109	3
N#Cc1cccc(N=Cc2ccc3c(c2)OCO3)c1	-21	108	110	nt
COc1ccc(N2C3=[N+](CC2(C)O)c2ccccc2CC3)cc1 (stereo not given)	nt	102	104	8
c1ccc(CSc2nnc(Cc3ccccc3)o2)cc1	-51	100	97	39
C=CCNc1nc(C(=O)OCC(=O)N2CCN(c3ccc(OC)cc3)CC2)cs1	5	100	105	1
O=S(=O)(c1ccccc1)N1CCN(S(=O)(=O)c2ccc3ccccc3c2)CC1	-12	101	101	-5
NS(=O)(=O)c1ccc(CNC(=O)CNC(=O)Cc2ccccc2)cc1	-13	99	97	-27
CC1(C)[C@H]2CCC1(CS(N)(=O)=O)C(=O)C2	-2	107	108	nt
Cn1c(C(=O)N2CCN(c3ccccn3)CC2)cc2c(=O)n(C)c3ccccc3c21	3	105	106	18
O=C(CCC1CCCC1)N1CCN(C(=O)COc2ccccc2)CC1	-3	104	105	nt
COC(=O)c1cc(NC(=O)COC(=O)C2CCC2)cc(C(=O)OC)c1	-4	105	108	-6
Cc1cc(C(=O)OCC(=O)Nc2sc3c(c2C#N)CCCC3)c2ccccc2n1	-7	107	107	nt
C/C(=N\NC(=S)NCc1ccccc1)c1ccc(S(=O)(=O)NCc2ccco2)cc1	-62	109	106	18
COc1ccc(CCN2C(=O)CSC2c2ccc3cccc(O)c3n2)cc1OC (stereo not given)	-7	101	103	-7
CCCNC(=O)c1cc2c(Cl)ccc3c2n1CCO3	-17	105	103	136
COc1ccccc1CN(C)C(=O)c1cccc(S(=O)(=O)N2CCCC2)c1	-47	106	96	-19
COCCn1cc(C(=O)O)c2ccccc21	-46	99	101	5
Nc1nonc1OCCNc1ccccc1	2	104	105	nt
CCSc1nc2ccccc2c(=O)n1CCOC	-31	101	102	8
CCC(=O)c1ccc2cc(OC)ccc2c1	5	101	107	130
Cc1ccc(C)c(OC(=O)NC(C)(C(F)(F)F)C(F)(F)F)c1C	-26	100	105	-16
CCOc1ccc2nc(NCCNC(=O)COc3ccccc3)c(C#N)cc2c1	-32	104	104	-5
CC(=O)N[N+]1=C(N)c2ccccc2C1	-13	104	103	-2
COc1ccc(-c2noc(CCC(=O)NC3CCN(Cc4ccccc4)CC3)n2)cc1	-18	100	100	4
CCc1ccc(NC(=O)c2cccc3c2C(=O)N(C2CCCCC2)C3)cc1	-3	102	96	3
O=C1CC(c2ccsc2)c2c(n[nH]c2-c2ccccc2)N1 (stereo not given)	7	101	102	-5
Cc1ccc(F)cc1S(=O)(=O)NC1CCCCNC1=O (stereo not given)	4	102	103	18
O=C(COc1cccc2ccccc12)N1CCN(c2ccccn2)CC1	-61	103	100	104
COc1cc(CO)ccc1OCc1ccc(C(=O)O)cc1	-14	102	101	1
Cc1ccc(C(=O)N2CCC(C)CC2)cc1	3	108	112	nt
COC(=O)c1ccc2nc(NC(=O)CN3C(=O)CCC3=O)sc2c1	-5	75*	81*	nt
CC(C)C(=O)Nc1ccc2c(c1)OCCO2	-5	108	116	nt
CC(CCc1ccccc1)NC(=O)CCc1nnc2ccc(N3CCOCC3)nn12 (stereo not given)	-12	104	107	-1
Cc1nn(CC(C)C)c(Cl)c1/C=C/C(=O)O	-27	100	103	-13
O=C(c1ccc(=O)[nH]c1)N1CCCSC1=Nc1cccc(C(F)(F)F)c1	-15	102	105	0
CCn1c2ccccc2c2cc(CN3CCN(C(=O)c4c(OC)cccc4OC)CC3)ccc21	-18	100	104	-6
O=C(COc1coc(CN2CCc3ccccc32)cc1=O)Nc1ccc2c(c1)OCCO2	-12	104	105	15
CC1CN(C(=O)c2cc3c(=O)n4ccccc4nc3s2)CC(C)O1 (stereo not given)	1	100	99	103
O=C(c1nnc(-c2ccc(Cl)cc2)o1)C1CCCC1	16	102	97	22
O=C(O)CC1NC(=S)N(Cc2ccccc2)C1=O (stereo not given)	-21	102	102	10
CC(Sc1nnc(-c2ccc(Cl)cc2)n1C)c1nc2ccccc2c(=O)[nH]1 (stereo not given)	10	101	101	2
CC1(C)C2CCC1(CS(=O)(=O)N1CCc3ccccc31)C(=O)C2 (stereo not given)	3	106	112	-16
CCC(=O)Nc1ccc(Oc2ccc(C)cc2)cc1	0	102	109	14
CSc1nnc(CCCN)n1C1CCCC1	-15	101	99	-2
N=C(N)N1CCN(c2ccccc2)CC1	9	100	104	-1
COc1cc(NC(=O)C2CCCC2)c(C(=O)OCC(=O)N2CC(C)CC(C)C2)cc1OC (stereo not given)	-17	102	101	104
Cc1ccc(CNC(=O)C2(c3ccc(Cl)cc3)CCC2)n1C	-19	106	109	-5
Cc1ccc(NCc2nnc(SCC(=O)c3ccc(C)cc3)n2C)cc1	-28	103	98	-14
Cc1c(C(=O)/C=C/N(C)C)sc(=S)n1CCc1ccc(Cl)cc1	-11	107	104	-6

(next part)
molecule	MenB inh	Polio RdRp inh	Polio RdRp inh intensity	MbtI inh
Cc1nonc1C(=O)NCC(=O)O	5	103	99	-11
CCCCCCn1nc(C(=O)OCc2nnc(-c3ccccc3)o2)c2ccccc2c1=O	-8	100	102	2
O=C(CCn1cnc2ccccc2c1=O)Nc1ccccn1	-56	103	104	-4
CCCCn1c(C)nc2ccccc21	-42	107	101	-8
Cc1ccccc1NC(=O)c1sc2nc[nH]c(=O)c2c1C	10	100	105	-12
CCn1c(N2CCCC(C(=O)Nc3ncn[nH]3)C2)nc2ccccc21 (stereo not given)	0	102	102	-6
CCn1c(=O)c(C2=NS(=O)(=O)c3ccccc3N2)c(O)c2ccccc21	-13	103	103	-7
O=C(COC(=O)c1cc2c(s1)CCC2)c1ccc(Br)s1	-7	98	101	-8
Cc1ccc(N(CC(=O)NC(c2ccccc2)c2ccccc2)S(=O)(=O)N2CCCC2)cc1	-31	104	104	-8
O=C(CSc1ccccc1)Nc1nnc(-c2ccccc2)o1	-16	105	105	-7
CSc1nc(C)nc(N/C=C2\C(=O)c3ccccc3N(C)S2(=O)=O)n1	9	104	99	0
CC(C)(C(=O)c1ccccc1)/[N+]([O-])=C/c1ccc(F)cc1	6	103	100	6
Cc1ccc2cccc(NC(=S)NC(=O)c3ccn(C)n3)c2n1	-34	102	102	3
CCCCN(C)Cn1ncn(C)c1=S	-12	98	93	29
O=C(CSc1ncccc1C(=O)O)NC1CCCc2ccccc21 (stereo not given)	-4	106	106	2
COc1ccc(Cn2c(C)csc2=Nc2cccnc2)cc1OC	2	100	108	10
Cc1cc2c(cc1S(=O)(=O)N1CCCc3ccccc31)OCCN2C	-22	105	101	-18
O=C(C1CC1)N1CCc2cc(Br)cc(S(=O)(=O)N3CCCCC3)c21	3	101	102	-5
Brc1ccc2ncnc(N3CCCC3)c2c1	-6	101	104	-2
Cc1cc(C(=O)COC(=O)c2ccc(CN3CCCC3=O)cc2)c(C)n1C	-4	106	107	-2
CSc1cccc(NC(=S)NCCCO)c1	-7	96	100	13
CCOC(=O)C1CCN(C(=O)c2cc(C(C)(C)C)nn2Cc2ccccc2)CC1	-9	104	103	-8
Cn1c(CC(=O)Nc2ccccc2)nnc1SCCOc1ccccc1	-8	100	102	-15
O=C(Nc1ccccc1)N(Cc1nc(-c2ccccc2)no1)C1CCCCC1	-11	100	101	-19

3 compounds already listed, arranged by SMILES length, high to low:
molecule	MenB inh	Polio RdRp inh	Polio RdRp inh intensity	MbtI inh
Cn1c(CC(=O)Nc2ccccc2)nnc1SCCOc1ccccc1	-8	100	102	-15
O=C(CSc1ncccc1C(=O)O)NC1CCCc2ccccc21 (stereo not given)	-4	106	106	2
CCCCN(C)Cn1ncn(C)c1=S	-12	98	93	29

Other compounds:
molecule	MenB inh	Polio RdRp inh	Polio RdRp inh intensity	MbtI inh
O=C(CN1CCC(N2CCCCC2)CC1)Nc1ccc2c(c1)OCCO2	0	99	100	-3
N=C1C(c2nc3ccccc3s2)=C(O)CN1C1CCCCC1	-17	105	116	nt
COC(=O)CSc1nnc(-c2ccccc2)n1Cc1ccc2c(c1)OCO2	-8	103	103	11
COc1ccc(N)cc1	-1	104	106	-17
COc1ccc(C(C(=O)OCCN(C)C)c2ccccc2)cc1 (stereo not given)	-10	106	109	-2
Cc1nc2cccc[n+]2c(-c2ccccc2)c1C	nt	101	100	-11
Cc1cccc(C2=NC(C(F)(F)F)(C(F)(F)F)c3c(n(C)c(=O)n(C)c3=O)N2)c1	8	101	97	-2
CN(CCOc1ccccc1)C(=O)NCc1ccccc1	-33	103	99	23
COc1ccc(CNC(=O)C2C3CCC(O3)C2C(=O)O)cc1 (stereo not given)	13	103	98	-10
O=S1(=O)CCC(N2CCSC2=Nc2ccc(Cl)cc2)C1 (stereo not given)	-18	91	93	-20
Oc1c(CN2CCOCC2)cc(CN2CCOCC2)cc1CN1CCOCC1	4	102	104	-11
COc1ccc(C(=O)Nc2ccc(-c3nc4cc(C)cc(C)c4o3)cc2)cc1OC	7	103	99	11
O=C(CCc1[nH]c2ccccc2c1Sc1ccccc1)N(CCO)CCO	-13	97	125	nt
O=C(COc1ccccc1)N1CCN(c2cccc(Cl)c2)CC1	-38	100	103	4
Cc1cc2c(cc1Br)NC(=O)C21C(C#N)=C(N)Oc2n[nH]c(C)c21 (stereo not given)	-13	101	101	3
O=C(C1CC1)N(c1ccccc1)C1C=CS(=O)(=O)C1 (stereo not given)	0	101	100	-2
N#Cc1cccc(CSc2nnc(-c3ccccc3F)n2C2CC2)c1	-9	96	96	5
O=c1cc(-c2ccccc2)[nH]n1-c1nc2ccccc2s1	-36	112	102	nt
C=CCNC1CC(=O)N(c2ccccc2)C1=O (stereo not given)	6	100	100	15
COC1=C[C@H]2C3=C([C@H]2C1=O)[C@@H](NC(C)=O)CCc1cc(OC)c(OC)c(OC)c13	-2	99	101	-8
CCOC(=O)C1CCN(C(=S)c2ccccc2)CC1	-9	103	102	59*
CC(C)(C)c1ccc(C(=O)NCC(=O)O)cc1	nt	100	104	-10
CCC(=O)Nc1sc(Cc2ccccc2)c(C)c1C(=O)OC	-35	107	99	nt
COC(=O)CSc1nc2ccccc2s1	-14	102	103	-4

An excerpt of these results, with two lines to a compound:
Results follow in this order: MenB inh	Polio RdRp inh	Polio RdRp inh intensity	MbtI inh
N#Cc1cccc(N=Cc2ccc3c(c2)OCO3)c1
    -21	108	110	nt
O=C(C1CC1)N1CCc2cc(Br)cc(S(=O)(=O)N3CCCCC3)c21
    3	101	102	-5

Later entries:
molecule	MenB inh	Polio RdRp inh	Polio RdRp inh intensity	MbtI inh
CN(C)c1ccc(CN2CCCCCC2)cc1	-59	103	98	0
C=CCSc1nnc(-c2cc(C(C)(C)C)nn2Cc2ccc(F)cc2)n1C	-24	102	96	6
O=C(NO)c1ccc(Br)s1	-19	101	98	-4
Cc1ccc(OCc2nc(SCc3c(C)noc3C)n[nH]2)cc1	-19	102	101	-29
CCOC(=O)/C(C#N)=C/c1c(C)nn(Cc2ccccc2)c1C	-11	nt	nt	13
Cc1c(C)c(C)c(CSCc2n[nH]c(=S)n2-c2ccc(F)cc2)c(C)c1C	1	104	103	0
CC(C)C(C)NC(=O)CSc1nc(N)cc(N)n1 (stereo not given)	-8	98	97	0
Cc1ccc(-c2nc3n(n2)C2(CCCCC2)[C@@H]2CCCC[C@@H]2N3C(=O)c2cccs2)cc1	7	103	102	-7
CC1CC(C)CN(C(=O)C2c3ccccc3C(=O)N(C)C2c2cn(C)c3ccccc23)C1 (stereo not given)	1	102	104	-5
C[N+]1(CCCCC[N+]2(C)CCCC2)CCCC1	-5&-3	99&101	102&103	-2&-10
N=c1n(Cc2ccccc2)c2ccccc2n1CC(O)c1ccc(Br)cc1 (stereo not given)	-1	100	100	2
COc1ccc2c(C)nc(/N=C(N)/N=C(\C)c3ccccc3C(=O)O)nc2c1	2	92	98	117
